# HPGD block: HPGD (human) dehydrogenase inhibition | P15428 | purified HPGD, NADH fluorescence kinetic, PGE2 substrate | Potency, µM, for the others: at the top dose activity change, negative = inhibition, most hits filed as inhibitors | 4.3% of 150,000 active; active = well fitted inhibition curve with a large enough effect (not every such curve was filed as active); inconclusive = small, poorly fitted or top-dose-only effect, or another doubt; inactive = no such curve, though single readings can be large or run the other way;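 also: top concentration of the series not given in the record; plate controls included wells without enzyme; inactives centre near -10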
# Target sequence (P15428 whole entry, looked up): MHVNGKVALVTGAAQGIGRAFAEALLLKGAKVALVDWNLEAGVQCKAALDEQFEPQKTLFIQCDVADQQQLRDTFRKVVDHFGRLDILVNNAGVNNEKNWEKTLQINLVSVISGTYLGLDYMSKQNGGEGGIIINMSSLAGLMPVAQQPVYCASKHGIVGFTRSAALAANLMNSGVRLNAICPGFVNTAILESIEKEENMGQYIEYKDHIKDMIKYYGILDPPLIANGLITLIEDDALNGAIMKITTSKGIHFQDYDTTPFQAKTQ
#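 20 nM HPGD preincubated 15 min at room temperature with compound in 50 mM Tris-HCl pH 8, 0.01% Tween 20. Started with 1 mM NAD+ and 30 uM prostaglandin E2; NADH fluorescence (360/450 nm) read 5 times over 30-s intervals, last minus first.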
# Active calls of the source: *; ? = inconclusive; & = joins results of further samples. % is scaled to controls: 0 for no effect and ±100 for the full control effect; potency is read from the fitted curve at half-maximal effect. These rows are one share of the data (hit frequency here may not be typical).
SMILES,HPGD block
COC(=O)c1ccc(OCCOc2ccc(C(=O)OC)cc2)cc1,-7.8%
CC1CCN(C(=O)C2CCN(CC(C)c3ccccc3)CC2)CC1 (stereo not given),-14.0%
CC(=O)NC(O)C(=O)c1ccccc1 (stereo not given),-8.4%
CSc1nnc(-c2ccc(F)cc2)o1,-8.1%
CC(C)(C#N)Nc1ccccc1,-13.4%
Cc1ccc(CSC(N)=Nc2ccccc2)cc1C,-9.5%
Cc1cc(SCC(=O)OCC(=O)NCc2ccc3c(c2)OCO3)c(C)cc1Br,-11.2%
COc1ccc(OC)c(CN2CCN(C(=O)c3cccc4ccccc34)CC2)c1,-12.8%
CN(CC(=O)N1CCc2ccccc21)S(=O)(=O)c1ccc(Cl)cc1,1.5%
CCOc1ccc(NC(N)=O)cc1OCC,-2.8%
CC(=O)OCCCN1C(=O)c2ccc(Br)cc2C1=O,-24.7%
CCOc1ccccc1NC(=O)CSc1nnc(CNC(=O)c2ccco2)o1,-11.5%
CN(C(=O)CSc1nc(-c2ccc(F)cc2)cs1)C1CCS(=O)(=O)C1 (stereo not given),-10.9%
CCOC(=O)C1=C(c2ccccc2)N=c2s/c(=C\c3ccco3)c(=O)n2C1c1cccs1 (stereo not given),-21.5%
Cc1ccc(-c2nn(-c3ccccc3)cc2C2CC(c3cccs3)=NN2C(=O)CCCC(=O)O)cc1 (stereo not given),?
CC(C)CCn1c(O)c(N=Nc2ccccn2)c2ccccc21,-10.3%
COCC(=O)N(C)C1(c2nnnn2CCOC(=O)Nc2cccc3ccccc23)CCCC1,-4.4%
Cc1c(NC(=O)c2cc(-c3ccc4c(c3)OCO4)on2)c(=O)n(-c2ccccc2)n1C,-29.9%
COc1ccc(Cc2nnc(NS(=O)(=O)Cc3ccccc3)s2)cc1,-12.0%
O=C(N/N=C/c1cc(Cl)ccc1O)c1ccc(Br)cc1,-19.4%
CCOC(=O)c1cnc(N(C)C)nc1SC(=N)N,-18.3%
CC(C)Cc1nc2n[nH]c(N)c2c2c1COC(C)(C)C2,-2.4%
CN1CCN(C(=O)c2cn(-c3ccccc3)nc2-c2cccnc2)CC1,-5.2%
COc1ccc(CCNC2CC(=O)N(CCc3ccc(OC)c(OC)c3)C2=O)cc1 (stereo not given),-10.5%
Cc1cccc(NS(=O)(=O)c2cccc3cccnc23)n1,-4.8%
CCSc1nnc(NC(=O)C2(C)Cc3ccccc3C(=O)O2)s1 (stereo not given),-10.4%
Cc1ccc(N/N=C(\C#N)C(N)=S)c(C)c1,14.1µM*
Cc1ccc2cc(S(=O)(=O)NCCCC(=O)O)ccc2c1,-3.7%
CCOC(=O)c1sc2nc(CSc3nc4ccccc4n3CC)[nH]c(=O)c2c1C,-10.7%
CC(C)NC(=O)Cn1c(SCC(=O)N2CCCCCC2)nc2ccccc21,-2.6%
COc1ccc(/C=C(/CC(=O)Nc2ccc(C)cc2)c2nc3ccccc3s2)cc1,?
COC(=O)c1ccc(SC2CCCCC2)c([N+](=O)[O-])c1,?
O=C(O)[C@@H]1[C@@H](C(=O)NCc2cccnc2)[C@@H]2C=C[C@@H]1O2,-12.7%
Cc1ccc(C)c(N2CCN(C(=O)C3CCCCN3S(=O)(=O)c3ccc(F)cc3)CC2)c1 (stereo not given),-12.0%
O=C(CC1(O)C(=O)Nc2ccccc21)c1ccc(-n2cccc2)cc1 (stereo not given),-20.7%
CC(C)c1ccc2c(c1)C1(NN=C(c3ccccc3)S1)C(=O)N2 (stereo not given),-23.9%
CC(C)COc1ccc(CN=C(N)N=C(N)N)cc1Cl,3.0%
Cn1cc(C(=O)NCCN2CCN(c3cccc(Cl)c3)CC2)c2c3ccccc3n(C)c2c1=O,-12.3%
COC(=O)c1ccc(NC(=O)CN2C(=O)CSC2=O)cc1,?
Nc1ccc(CN2CCCCCC2)cc1,-16.0%
Cc1[nH]nc(SCC(=O)N2CCC(C)CC2)c1[N+](=O)[O-],6.31µM*
C=CCSc1nc2c(c(=O)[nH]c(=O)n2C)n1Cc1ccc(C)cc1,25.1µM*
CCOC(=O)c1c(NC(=O)CSc2nnc(Cc3ccccc3)o2)sc(C(C)=O)c1C,-17.8%
COC(=O)N1[C@H](C)C=C[C@]1(Cc1ccccc1)C(=O)OC,-4.5%
C=CCn1c(SCC(=O)NCC)nnc1-c1cc2c(s1)CCC(CC)C2 (stereo not given),-11.5%
COC(=O)C1=C(N)N(c2ccc(F)cc2)C2=C(C(=O)CCC2)C1c1ccc2c(c1)OCO2 (stereo not given),-14.2%
Cc1cc(/C=C(\C#N)C(=O)OCC(=O)NC(=O)NC(C)(C)C)c(C)n1CCC(C)C,?
Cc1cccc(Nc2nc(-c3ccccn3)cs2)n1,-13.8%
O=C(CC1S/C(=N/N=C/c2cccs2)NC1=O)Nc1ccc(Cl)cc1 (stereo not given),-5.2%
Cc1cccc(Oc2nc(-c3ccccc3)cc(C)c2S(C)(=O)=O)c1C,28.2%
COc1cccc(NS(=O)(=O)c2ccc3c(c2)n(C)c(=O)c(=O)n3C)c1,-12.8%
COc1cc(C)c(NC(=S)Nc2cccc(Cl)c2C)cc1OC,-14.3%
CCOC(=O)C1CCN(C(=O)CSc2cc(=O)n(CC)c3ccccc23)CC1,-9.7%
CC1CCCC(NC(=O)C2CCN(S(=O)(=O)N3CCC4(CC3)OCCO4)CC2)C1C (stereo not given),-7.8%
NC(CCC(=O)NCS(=O)(=O)O)C(=O)O (stereo not given),6.7%
O=c1cc(-c2ccccc2Cl)oc2c([N+](=O)[O-])ccc(O)c12,-18.3%
COC(=O)c1ccc(Nc2cc(C)nc(-c3ccccc3O)n2)cc1,-10.7%
C1CNCCNCCCNCCNC1,-6.6%
O=C(O)CC(Cc1ccc(Cl)cc1)C(=O)NCc1ccccc1 (stereo not given),-10.3%
O=C(COC(=O)c1ccc(-c2nnc(-c3ccccc3)o2)cc1)c1ccccc1,-4.2%

# (list continues)
SMILES,HPGD block
Cc1ccc2[nH]c(=O)c(C(c3nnnn3Cc3ccccc3)N3CCc4ccccc43)cc2c1 (stereo not given),?
CCCC1OC23CCCCC2C(C#N)(C#N)C1(C#N)C(=N)O3 (stereo not given),?
CCc1sc(C(=O)NC)cc1Br,-13.1%
OCc1ccccc1OCCOc1ccc(Cl)c2cccnc12,-11.6%
O=C(O)c1ccccc1C(=O)NNc1ccc(Cl)cc1,-10.4%
Cn1c(=O)n(C)c2cc([N+](=O)[O-])c(N3CCN(C(=O)c4ccc(Cl)cc4)CC3)cc21,-14.5%
CCOC(=O)c1ccc(NC(=O)NC(C)C2CCCO2)cc1 (stereo not given),-7.6%
COc1ccc(S(=O)(=O)N2CCCN(CC(=O)C(C)(C)C)CC2)cc1,-10.8%
O=S(=O)(c1ccccc1)N1CCN(S(=O)(=O)N2CCCCC2)CC1,-2.2%
CCCCC(=O)NNC(=S)NC(=O)CCC,-14.0%
O=C(CNS(=O)(=O)c1ccccc1)N/N=C\c1ccc(Cl)cc1,-7.6%
COc1ccc(S(=O)(=O)N2CCN(C3CCN(Cc4ccccc4)CC3)CC2)cc1,-2.7%
COc1ccc(S(=O)(=O)N2CCCCCC2)cc1C(=O)OCc1c(C)noc1C,0.9%
Cc1ccc(N2C(=O)C3C(c4ccccc4)N4CCCN4C3(C)C2=O)cc1 (stereo not given),-2.9%
CC1CCN(C(=O)c2ccc(COc3ccccc3Cl)o2)CC1,15.8µM*

# Given with tabs: part of the list above
Compound	HPGD block
O=C(CC1S/C(=N/N=C/c2cccs2)NC1=O)Nc1ccc(Cl)cc1 (stereo not given)	-5.2%
Nc1ccc(CN2CCCCCC2)cc1	-16.0%
COc1cc(C)c(NC(=S)Nc2cccc(Cl)c2C)cc1OC	-14.3%
CN1CCN(C(=O)c2cn(-c3ccccc3)nc2-c2cccnc2)CC1	-5.2%
Cn1cc(C(=O)NCCN2CCN(c3cccc(Cl)c3)CC2)c2c3ccccc3n(C)c2c1=O	-12.3%

# Continued:
SMILES,HPGD block
Cc1cc(Nc2ccc(Cl)cc2)nc(NCc2ccccc2)n1,-28.4%
COC(=O)c1cc(NC(=O)CN(c2ccc3c(c2)OCO3)S(C)(=O)=O)ccc1Cl,-11.8%
CCSc1nnc(-c2ccccc2NC(=O)CC)c(=O)[nH]1,-2.7%
Cc1cc2c(cc1C)N(C(=O)CSc1nncn1C)C(C)(C)c1ssc(=S)c1-2,-11.3%
CCCNC(=O)CCn1c(-c2ccc(C)cc2)cc(C(=O)OCC)c1C,-3.8%
O=C(c1ccncc1)N1CCC2(CC1)CCN(c1ncccn1)CC2,-13.2%
COc1ccc(/C=C(\C#N)C(=O)OCC(=O)Nc2c(C)cccc2C)cc1,-10.7%
Cc1cccc(N2C(=O)c3cccc4c(N5CCCCC5)c([N+](=O)[O-])cc(c34)C2=O)c1C,-4.6%
O=C(NCCCCc1ccccc1)c1ccc(Br)o1,14.1µM*
COc1ccc(OCC(=O)Nc2ccc(S(=O)(=O)Nc3cc(C)nc(C)n3)cc2)cc1,-6.7%
Cc1nn(-c2ccccc2)c(Cl)c1/C=N/NC(=O)OC(C)(C)C,-8.2%
O=C(NC1=C(Nc2ccc(F)cc2)C(=O)c2ccccc2C1=O)c1ccc(Cl)cc1,-5.2%
COC(=O)c1ccc(NC(=O)CSc2nncn2C)cc1,-14.6%
Cc1nnc2c(-c3ccccc3)nc3ccccc3n12,4.9%
Cc1ccc(C)c2[nH]c(=O)c(CCNC(=O)Cc3cccs3)cc12,?
CC(C)CC(=O)N1CCN(CC2CC=CCC2)CC1 (stereo not given),3.8%
O=C(NCc1ccccc1)N1CCC(n2cnc3cc(F)ccc32)CC1,-16.8%
Cc1ccc(OCC(=O)N/N=C\c2ccco2)c(C)c1,-16.4%
Cc1ccc(S(=O)(=O)N2C(=O)CCC2C(=O)Nn2cnnc2)cc1 (stereo not given),-4.3%
CC(Oc1ccccc1)C(=O)NC1CC(C)(C)NC(C)(C)C1 (stereo not given),-2.7%
O=c1oc(-c2cccs2)nc2sc3c(c12)CCC3,-16.3%
COCCn1c(SCC(=O)NC(=O)NC(C)(C)C)nc2ccccc21,-8.5%
CC1CN(CC(O)COC(c2ccccc2)c2ccccc2)CC(C)O1 (stereo not given),-6.3%
CN1CC=C2C(C#N)=C(N)C(C#N)(C#N)C(CCc3ccccc3)C2C1 (stereo not given),?
Cc1ccc(C)c2sc(NC(=O)c3ccc(N4CCCCC4)c([N+](=O)[O-])c3)nc12,-11.3%
CCn1c(C(C#N)/C(=N\S(=O)(=O)c2cccs2)c2ccccc2)nc2ccccc21 (stereo not given),-6.7%
Cc1nnsc1S(=O)(=O)Cc1ccccc1Cl,2.4%
CC1(C)CC(=O)C=C(NCc2cccnc2)C1,-4.7%
COCCNC(=O)Cn1nc(C)c2ccccc2c1=O,-16.1%
CCN(CC)C(=O)c1sc2nc(-c3ccc(OC)cc3)cn2c1C,14.1µM*

# The final 7 records of the section above are carried over, then new ones follow.
SMILES,HPGD block
CN1CC=C2C(C#N)=C(N)C(C#N)(C#N)C(CCc3ccccc3)C2C1 (stereo not given),?
Cc1ccc(C)c2sc(NC(=O)c3ccc(N4CCCCC4)c([N+](=O)[O-])c3)nc12,-11.3%
CCn1c(C(C#N)/C(=N\S(=O)(=O)c2cccs2)c2ccccc2)nc2ccccc21 (stereo not given),-6.7%
Cc1nnsc1S(=O)(=O)Cc1ccccc1Cl,2.4%
CC1(C)CC(=O)C=C(NCc2cccnc2)C1,-4.7%
COCCNC(=O)Cn1nc(C)c2ccccc2c1=O,-16.1%
CCN(CC)C(=O)c1sc2nc(-c3ccc(OC)cc3)cn2c1C,14.1µM*
CC(=O)Nc1ccc(/C=N/NC(N)=S)cc1,-20.1%
O=S(=O)(Nc1ccc(S(=O)(=O)N2CCCCCC2)cc1)c1cccs1,-8.8%
COC(=O)c1c(NC(=O)c2nc3ncccn3n2)sc(C(=O)N(C)C)c1C,-16.4%
COCCCNC(=O)CSC1=Nc2ccccc2C2=NC(CC(=O)NCc3ccccc3)C(=O)N12 (stereo not given),?
COc1ccc(CCNC(=O)CC2COc3ccccc3O2)cc1OC (stereo not given),-8.2%
CCSc1nnc(-c2cccnc2)n1-c1ccc(Cl)c(C)c1,-18.1%
Cc1ccc(C(c2nnnn2C(C)(C)C)N2CCC(C)CC2)cc1 (stereo not given),-11.3%
O=C(N/N=C/c1ccco1)c1cc(-c2cccc(Br)c2)nc2ccccc12,?
CCOC(=O)c1c(C)[nH]c2cc(Br)c(OC)cc12,-13.4%
Cc1ccc(S(=O)(=O)Nc2cc(Cl)c(O)cc2C)cc1,-0.2%
COc1ccc(S(=O)(=O)N(CC(=O)NCc2ccco2)c2ccccc2)cc1,-11.7%
COc1ccc(C(=O)Nn2c(SCC(=O)N3CCC(C)CC3)nc3ccccc3c2=O)cc1,?
COc1ccc(S(=O)(=O)NCc2ccccn2)c(Cl)c1Cl,-2.1%
CCCCC(=O)NC(Nc1cc(C)ccn1)(C(=O)OCC)C(F)(F)F (stereo not given),-6.5%
O=C(CSc1nnc(-c2cccnc2)n1C1CCCCC1)NC1CCCCC1,-18.8%
COC(=O)C1CCN(S(=O)(=O)c2cn(C)c(=O)n(C)c2=O)CC1,-11.4%
O=C(NCC1CCCO1)C1CCN(C(=O)c2ccc(Br)cc2)CC1 (stereo not given),-0.1%
CCOC(=O)C1CCN(CC(=O)N2C(C)CCCC2C)CC1 (stereo not given),-18.9%
O=C1N=C(O)CN1/N=C\c1ccc(-c2ccc([N+](=O)[O-])cc2)o1,-24.0%&-15.5%
O=C(c1cc(Cl)cc(Cl)c1)N1CCOCC1,-2.7%

# High-throughput results from PubChem.
